# GIRK2 activ = activators of human GIRK2 potassium channels; G protein-activated inward rectifier potassium channel 2 (Homo sapiens), P48051; HEK293-GIRK2 thallium flux, Thallos fluorescence; calls only for hits at 25 µM; actives 0.05% (n = 63,000); AID 1259325, 2017;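 active = among the strongest 0.2% of first-round signals and kept after retests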;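 also: first round at about 10 µM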
# Target sequence (P48051 whole entry, looked up): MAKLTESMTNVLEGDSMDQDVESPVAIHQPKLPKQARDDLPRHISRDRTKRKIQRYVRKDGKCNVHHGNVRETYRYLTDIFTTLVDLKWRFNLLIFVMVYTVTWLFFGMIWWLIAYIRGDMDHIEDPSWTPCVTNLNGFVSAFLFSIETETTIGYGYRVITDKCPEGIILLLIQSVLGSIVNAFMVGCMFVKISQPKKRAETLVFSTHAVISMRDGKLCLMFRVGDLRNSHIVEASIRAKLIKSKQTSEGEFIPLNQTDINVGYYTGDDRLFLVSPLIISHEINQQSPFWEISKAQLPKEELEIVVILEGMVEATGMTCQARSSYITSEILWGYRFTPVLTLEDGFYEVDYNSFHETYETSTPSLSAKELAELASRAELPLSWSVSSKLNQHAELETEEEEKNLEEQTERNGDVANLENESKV
# Calls only; i = inactive.
Molecule,GIRK2 activ
COc1ccc(N2C(=O)CSC23C(=O)N(CC(=O)NCCc2ccccc2)c2ccccc23)cc1 (centres undefined),i
CCOc1ccccc1CNc1nccc(-n2nc(C)cc2C)n1,i
Cn1c(=O)[nH]c(=O)c2c1nc(N1CCCCCC1)n2CC(=O)c1ccccc1,i
N#C/C(=C\c1ccc(O)cc1)c1nc2ccccc2s1,i
O=C(C1CCN(c2cc(Oc3ccccc3)ncn2)CC1)N1CCN(c2ccc(Cl)cc2)CC1,i
CCc1cccc2sc(N(Cc3cccnc3)C(=O)CCS(=O)(=O)Cc3ccccc3)nc12,i
CCCNC(=O)Cn1nc2c(c1NC(=O)C(c1ccccc1)c1ccccc1)CSC2,i
COC(=O)c1ccc(NC(=O)C(=O)NC(C)CCc2ccccc2)cc1 (centres undefined),i
O=C(COc1ccc(Cl)cc1)Nc1ccccc1NC(=O)c1ccccc1C(F)(F)F,i
Cc1cccc(NC(=O)CSc2nccn(-c3cccc(F)c3)c2=O)c1,i
CS(=O)(=O)NCC1CCC(C(=O)NCc2ccccc2Cl)CC1 (centres undefined),i
COc1ccc(NC(=O)C2CCN(c3cnc4ccccc4n3)CC2)c(OC)c1,i
Cn1nc(N2CCC(C(=O)Nc3cccc(C(F)(F)F)c3)CC2)ccc1=O,i
CCCCC[C@H](O)/C=C/[C@@H]1[C@@H](C/C=C\CCCCN(C)C)[C@@H](O)C[C@H]1O,i
COc1ccc(-c2cc3c(=O)n(CC(=O)NCc4ccco4)ccn3n2)cc1,i
CCN(CC)CCCN1C(=O)C(=O)C(=C(O)c2c(C)nc3ccccn23)C1c1ccco1 (centres undefined),i
O=C(O)CC(CC(=O)Nc1ccc2c(c1)CN(C(=O)c1ccco1)CC2)c1cccs1 (centres undefined),i
COc1ccccc1-c1nc(Cn2ccn3nc(-c4ccc(Cl)cc4)cc3c2=O)c(C)o1,i
COc1cccc(-c2cc(=O)[nH]c(SCc3nc(-c4ccc(F)c(Br)c4)no3)n2)c1,i
C=CC(C)(C)OCC(O)CN1CCN(CCO)CC1 (centres undefined),i
Cc1ccc(-n2c(C)nc3ccc(NC(=O)c4cccs4)cc3c2=O)cc1,i
CSc1ncn(CC(=O)Nc2cccc(C)c2)c(=O)c1C#N,i
O=C(CSC1CCCC1)N1CCCC(c2nnc(-c3ccccc3F)s2)C1 (centres undefined),i
Cc1ccc(C(O)=C2C(=O)C(=O)N(c3nccs3)C2c2ccccc2Cl)cc1 (centres undefined),i
O=C(Cc1ccc(NC(=O)c2cc3ccccc3o2)cc1)NCc1cccs1,i
CC(C)N1CCC(CNC(=O)c2cccc(C(F)(F)F)c2)CC1,i
COc1ccc(Br)cc1/C=C1\Oc2c(ccc3c2CN(Cc2ccccn2)CO3)C1=O,i
CCCCCC(=O)CC[C@@H]1[C@@H](CCCCCCC(=O)O)[C@@H](O)C[C@H]1O,i
O=C(CCc1csc2nc(-c3ccc(Cl)cc3)cn12)N1CCC2(CC1)OCCO2,i
O=C(O)c1ccc(-n2nc3c4c(cccc4c2=O)-c2ccccc2-3)cc1,i
Cn1nc(C(=O)N2CCC(c3nnc(C4CC4)o3)CC2)ccc1=O,i
COc1ccc(OC)c(NC(=O)Cn2c(=O)n(Cc3nc(C)no3)c(=O)c3ccccc32)c1,i
COc1c(C)cc(S(=O)(=O)Nc2ccc3c(c2)CCC(=O)N3)cc1C,i
S=c1nc(-c2ccccc2)n(CCN2CCOCC2)c2c1CCCC2,i
Cc1ccc(-n2cc(C(=O)N3CCC(NC(=O)CC4CCCCC4)CC3)nn2)cc1C,i
O=C(N1CCCC(c2nnc(-c3cccs3)o2)C1)C1(c2ccccc2)CCOCC1 (centres undefined),i
CNc1oc(-c2ccccc2)nc1S(=O)(=O)c1ccc(Cl)cc1,i
O=S(=O)(c1cccc(Cl)c1)c1nnn2c1nc(N1CCCC1)c1sccc12,i
COc1ccc2c(c1)c(CC(=O)NC[C@H](C)c1ccccc1)c(C)n2C(=O)c1ccc(Cl)cc1,i
COc1cccc2sc(N(CCCn3ccnc3)C(=O)c3ccc4c(c3)OCCO4)nc12,i
COc1ccc(-c2nc(-c3nnn(-c4ccccc4)c3-c3ccncc3)no2)cc1OC,i
Cc1cc(=O)n(CC(=O)Nc2c(C)cccc2C)c(N2CCOCC2)n1,i
COCCNC(=O)N1CCN(S(=O)(=O)C2CC2)CC1,i
COc1ccc(C(=O)CSc2nccc3c(OC)cccc23)cc1,i
Cc1ccc(Cl)cc1NC(=O)CSc1nccn1-c1ccc(C(=O)NCc2ccco2)cc1,i
NC(=O)C1CCN(C(=O)CCc2csc(NC(=O)c3ccc[nH]c3=O)n2)CC1,i
COC(=O)C1=C(C)NC(C)=C(C(=O)OCCN(C)Cc2ccccc2)C1c1cccc([N+](=O)[O-])c1 (centres undefined),i
CC(=O)Cn1c(=O)c2c(nc3n(-c4cccc(C)c4C)c(C)c(C)n23)n(C)c1=O,i
O=C(CN1CCN(C(=O)NCc2cccs2)CC1)c1ccco1,i
COc1ccc(/C=C/c2nn3c(-c4ccco4)nnc3s2)cc1,i

# (listing goes on)
Molecule | GIRK2 activ
O=c1n(Cc2nc(-c3ccc(OC(F)(F)F)cc3)no2)nc2ccc(-c3ccccc3)nn12 | i
COc1ccc(/C=N\NC(=O)c2ccc(S(=O)(=O)N3CCCCCC3)cc2)cc1OC | i
COc1ccc(-n2nnc3c(N4CCN(C(=O)c5ccc(Br)cc5)CC4)ncnc32)cc1 | i
COc1ccc2c(c1)c(CC(=O)NCc1ccc(C(F)(F)F)cc1)c(C)n2C(=O)c1ccc(Cl)cc1 | i
CCOc1ccc(N2CCN(CC(=O)Nc3ccc(F)c(F)c3F)C2=O)cc1 | i
CSc1ccccc1C(=O)Nc1ccc2c(c1)C(=O)N(C)CCO2 | i
CN(C)C(=O)c1nnn(-c2ccc(NC(=O)c3ccccc3)cc2)n1 | i
COc1ccc(CCS(=O)(=O)NCC(c2ccc3c(c2)CCO3)N(C)C)cc1 (centres undefined) | i
COc1ccc(OC)c(NC(=O)C2CCN(c3c(C#N)cnc4ccc(F)cc34)CC2)c1 | i
CSc1ccccc1C(=O)N1CCc2nc(NC(=O)c3ccco3)sc2C1 | i
CC(=O)c1ccc(C(=O)N(CCN2CCOCC2)c2nc3c(F)cc(F)cc3s2)cc1 | i
CCc1ccc(-n2c(C)cn3c4c(=O)n(CCN5CCOCC5)c(=O)n(C)c4nc23)cc1 | i
Cc1ccc(S(=O)(=O)NCCCN2CCN(c3ccccc3)CC2)cc1 | i
COc1ccc(OC)c(/C=C/C(=O)c2ccc(OC)cc2OC)c1 | i
O=C(CNCCO)NC1C2CC3CC(C2)CC1C3 (centres undefined) | i
C=CCn1c(SCC(=O)c2ccc3c(c2)OCCO3)nc2sc(C)c(C)c2c1=O | i
Cc1ccc(C(C)C)c(OCC(O)Cn2nc(C)c(Br)c2C)c1 (centres undefined) | i
CC(C)OC(=O)c1ccc(N/C=C(\C#N)c2nc(-c3cc4ccccc4oc3=O)cs2)cc1 | i
O=C(c1cccs1)N1CCCC(c2nnc(-c3cccs3)o2)C1 (centres undefined) | i
CC1Oc2ccccc2C=C1/C=C1\Oc2cc(OC(=O)N3CCOCC3)ccc2C1=O (centres undefined) | i
O=C(Nc1cc(N2CCCC2)ncn1)c1cc(C2CC2)on1 | i
COc1ccc2oc(-c3ccccc3)c(C(=O)Nc3nccs3)c2c1 | i
O=C(c1ccc(S(=O)(=O)N2CCCC2)cc1)N1CCC(Oc2ccc(C(F)(F)F)cn2)CC1 | i
CCc1cccc(OCC(O)Cn2c(N3CCN(C)CC3)nc3c2c(=O)[nH]c(=O)n3C)c1 (centres undefined) | i

# The last 6 records of the section above are carried over, then new ones follow:
Molecule | GIRK2 activ
O=C(c1cccs1)N1CCCC(c2nnc(-c3cccs3)o2)C1 (centres undefined) | i
CC1Oc2ccccc2C=C1/C=C1\Oc2cc(OC(=O)N3CCOCC3)ccc2C1=O (centres undefined) | i
O=C(Nc1cc(N2CCCC2)ncn1)c1cc(C2CC2)on1 | i
COc1ccc2oc(-c3ccccc3)c(C(=O)Nc3nccs3)c2c1 | i
O=C(c1ccc(S(=O)(=O)N2CCCC2)cc1)N1CCC(Oc2ccc(C(F)(F)F)cn2)CC1 | i
CCc1cccc(OCC(O)Cn2c(N3CCN(C)CC3)nc3c2c(=O)[nH]c(=O)n3C)c1 (centres undefined) | i
Cc1ccccc1CN1CCN(CCn2c(C)cn3c4c(=O)[nH]c(=O)n(C)c4nc23)CC1 | i
CNC(=O)Cc1csc(NC(=O)Cn2cnc3ccccc32)n1 | i
O=C(CSCc1ccccc1)N1CCN(C2=NN=C(c3cccs3)CS2)CC1 | i
CCOC(=O)c1sc2ccccc2c1S(=O)(=O)Nc1ccc(C)cc1Cl | i
COc1cc(=O)c(C(=O)NCCc2ccccn2)nn1-c1ccc(F)cc1 | i
CCCNC(=O)CSc1nnc(C)c2cnn(-c3ccc(C)c(C)c3)c12 | i
O=C(Cn1c(=O)oc2ccccc21)N1CC(c2nc(-c3ccncc3)no2)C1 | i
CC(C)(C)CC(=O)Nc1cc(-c2cccs2)nn1-c1nc(-c2ccccc2)cc(=O)[nH]1 | i
COC(=O)c1ccc(C(=O)N(Cc2ccco2)c2nc3c(SC)cccc3s2)cc1 | i
COc1cc(OC)c(Nc2c(C#N)cnc3ccccc23)cc1Cl | i
COCCN(Cc1ccsc1)C(=O)CSc1ccc(F)cc1 | i
CCC(C)NC(=O)c1ccc2c(=O)n(C)c3nn(CC(=O)Nc4ccc(C(C)C)cc4)c(=O)n3c2c1 (centres undefined) | i

# 7 records drawn at random from the list so far, as already listed:
Molecule | GIRK2 activ
COCCN(Cc1ccsc1)C(=O)CSc1ccc(F)cc1 | i
CNC(=O)Cc1csc(NC(=O)Cn2cnc3ccccc32)n1 | i
COc1cc(OC)c(Nc2c(C#N)cnc3ccccc23)cc1Cl | i
CC(C)(C)CC(=O)Nc1cc(-c2cccs2)nn1-c1nc(-c2ccccc2)cc(=O)[nH]1 | i
Cc1ccccc1CN1CCN(CCn2c(C)cn3c4c(=O)[nH]c(=O)n(C)c4nc23)CC1 | i
O=C(Cn1c(=O)oc2ccccc21)N1CC(c2nc(-c3ccncc3)no2)C1 | i
COc1cc(=O)c(C(=O)NCCc2ccccn2)nn1-c1ccc(F)cc1 | i

# (next part)
Molecule | GIRK2 activ
CC(C)(C)c1csc(CN2CCN(C(=O)c3ccc(Br)o3)CC2)n1 | i
O=C(CSc1ccc(F)cc1)Nc1ccc(Cl)c(N2CCCS2(=O)=O)c1 | i
CCc1cc2c(=O)c(-c3nc4ccccc4n3C)c(CCC(=O)O)oc2cc1OC(=O)C(C)(C)C | i
O=C(NCC(F)(F)F)C1CCN(C(=O)c2c[nH]c3ccccc23)CC1 | i
Cc1cc(C)n(CCNC(=O)CSc2ccc(F)cc2)n1 | i
COc1ccc(OC)c(-n2c(=O)[nH]c3cc(C(=O)NCCc4ccccc4)ccc3c2=O)c1 | i
Cc1noc(-c2ccc(NC(=O)c3cnn(-c4ccccc4)n3)cc2)n1 | i
COc1ccccc1CNC(=O)C1CCN(c2ncccc2-c2nc(-c3ccccc3)no2)CC1 | i
O=C(NCC(c1cccs1)N1CCOCC1)c1cnccn1 (centres undefined) | i
Oc1ccc2c(-c3c(-c4ccccn4)nn4c3CCC4)ccnc2c1 | i
Cc1cc(CNS(=O)(=O)c2ccc(F)c(F)c2)c(C)o1 | i
Cn1c(=O)n(Cc2ccc(Cl)c(Cl)c2)c(=O)c2c1nc1n2CCCN1Cc1ccco1 | i
COc1ccc(-c2cc3nc(C)cc(NC4CCCC4)n3n2)cc1OC | i
COc1cccc(CNC(=O)Cn2c(N)nc(C)c(C)c2=O)c1 | i
O=S(=O)(Cc1cccc(F)c1)N1CCN(c2ccc(-c3noc(C4CC4)n3)cn2)CC1 | i
CCSc1nnc(NC(=O)c2nnn(-c3ccc(C)cc3)n2)s1 | i
C=CCn1c(=O)c2c(nc3n(-c4ccccc4O)c(C)c(C)n23)n(C)c1=O | i
O=C(Cc1cccs1)NC1CCN(C(=O)c2cn(-c3ccc(Cl)cc3)nn2)CC1 | i
CCC(=O)c1ccc(OCC(O)Cn2cccn2)cc1 (centres undefined) | i
COC(=O)c1sccc1S(=O)(=O)N1CCCC(c2nnc(-c3cccs3)o2)C1 (centres undefined) | i
CC/C=C\C/C=C\C/C=C\CCCCCCCCCCCC(=O)O | i
O=c1c(NCCc2c[nH]c3ccccc23)nccn1Cc1ccc(Cl)cc1 | i
COc1ccc(OCCS(=O)(=O)Nc2ccc(C(C)=O)cc2)cc1 | i
COc1ccc(NC(=O)Nc2ccc3c(c2)CCC(=O)N3Cc2ccccc2)cc1OC | i
COc1ccc(-c2c(C#N)c(=O)[nH]c3c2c(C)nn3-c2ccccc2)cc1OC | i
CC1CN(c2c([N+](=O)[O-])c(=O)n(C)c3ccccc23)CC(C)O1 (centres undefined) | i
Cc1nc(Cl)c2c(C)c(C)sc2n1 | i
O=C(NCc1ccc2c(c1)OCO2)C(=O)N1CCN(c2ccccc2F)CC1 | i
CS(=O)(=O)c1ccc2nc(NC(=O)C3CCN(C(=O)NCc4cccs4)CC3)sc2c1 | i
COc1ccc(CCNC(=O)N2CC(c3nc4ccc(C)cc4[nH]3)C2)cc1 | i
Cc1ccccc1-c1cc2c(=O)n(Cc3nc(-c4cccs4)no3)ccn2n1 | i
O=C(Cc1ccc(NC(=O)Nc2ccc3c(c2)OCO3)cc1)NCc1cccs1 | i
CCCc1nnsc1C(=O)NCCc1nc(C2CC2)cc(C(F)(F)F)n1 | i
O=C(NCCc1c[nH]c2ccccc12)c1ccc(-n2cccn2)nn1 | i
COc1ccc2c(=O)c3c(=O)n(-c4ccccc4)c(C4CCCCC4)nc3oc2c1 | i
O=C(Nc1nc(-c2ccccn2)cs1)Nc1ccccc1Cl | i
Cc1ccc(S(=O)(=O)c2nc(S(=O)(=O)c3ccccc3)sc2N2CCC(O)CC2)cc1 | i
Cc1nc(-n2cccc2)sc1C(=O)N1CCN(CC(=O)c2ccco2)CC1 | i
CCc1cnc2c(c1SCC(=O)NC(C)(C)C)c(=O)n(C)c(=O)n2C | i
COc1ccc(-c2csc3c(=O)n(CC(=O)NCc4cccc(OC)c4OC)cnc23)cc1 | i

# These rows are one share of the data. The share of hits here may be higher or lower than overall.
